# High-throughput results as filed in PubChem BioAssay.
# D2 ag: agonists of human D2 dopamine receptor (beta-arrestin); AID 624465; P14416; DiscoveRx PathHunter D2 beta-arrestin, luminescence, 90 min; 100% = 57 uM dopamine signal; actives 0.084% (n = 360,000); activation, % (no concentration beside the values); in the data active = activation above about 40%; inconclusive = about 15% to 40%; inactive = below about 15%; note: compound concentration not given in the record; the text of the record calls up to 30% inactive
#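 Agonist mode: compounds alone added to overnight-plated D2 PathHunter cells for 90 min at 37 C, with 57 uM final dopamine (EC100) defining full response. Beta-arrestin recruitment detected by chemiluminescent reagent, read after 1 h at ambient temperature.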
# Six1-Eya2 inh: inhibitors of human Six1/Eya2 interaction; activity change, % (concentration not given with the values); actives 0.56% (n = 360,000); Q15475+O00167; AlphaScreen GST-Six1/His-Eya2 binding, biochemical; stronger effect = lower value; control for the full effect not named in the record; in the data active = activity change below about -65%; inconclusive = about -30% to -65%; inactive = above about -30%; note: % is set by controls: 0 for no effect and ±100 for the full control effect
# Target sequence (O00167 whole entry, looked up): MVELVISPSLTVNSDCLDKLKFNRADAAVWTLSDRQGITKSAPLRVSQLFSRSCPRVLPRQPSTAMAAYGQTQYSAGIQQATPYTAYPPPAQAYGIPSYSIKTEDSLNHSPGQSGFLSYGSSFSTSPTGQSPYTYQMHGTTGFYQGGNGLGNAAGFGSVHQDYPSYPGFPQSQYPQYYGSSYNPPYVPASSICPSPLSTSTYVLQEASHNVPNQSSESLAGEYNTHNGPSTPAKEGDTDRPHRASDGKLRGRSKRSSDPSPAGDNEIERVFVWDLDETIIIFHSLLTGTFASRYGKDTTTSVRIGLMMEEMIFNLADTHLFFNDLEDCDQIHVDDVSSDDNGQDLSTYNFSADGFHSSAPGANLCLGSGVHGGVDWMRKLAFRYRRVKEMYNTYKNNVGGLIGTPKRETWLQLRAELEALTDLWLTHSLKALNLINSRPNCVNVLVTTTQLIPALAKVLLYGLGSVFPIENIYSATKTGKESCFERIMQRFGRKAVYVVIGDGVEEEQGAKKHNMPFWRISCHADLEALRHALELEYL
# Target sequence (Q15475 whole entry, looked up): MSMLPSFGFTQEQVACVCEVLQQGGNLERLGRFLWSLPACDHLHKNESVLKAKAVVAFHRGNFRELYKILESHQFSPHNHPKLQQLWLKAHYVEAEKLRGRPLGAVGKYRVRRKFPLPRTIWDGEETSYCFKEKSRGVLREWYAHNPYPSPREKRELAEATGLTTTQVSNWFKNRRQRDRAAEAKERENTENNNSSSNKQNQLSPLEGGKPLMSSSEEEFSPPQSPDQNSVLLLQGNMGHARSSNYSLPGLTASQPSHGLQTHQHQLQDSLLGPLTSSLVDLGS
#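 AlphaScreen luminescence read after one hour at 37 °C in darkness. Pin-transferred compounds met GST-Six1 and His-Eya2 protein (5X stock 250 nM/500 nM) plus glutathione donor and Ni-chelate acceptor beads (5X, 50 ug/mL).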
# TRPML1 blocker: inhibitors of human TRPML1 channel. Q9GZU1. TRPML1-inducible cells, Ca2+ dye fluorescence, FDSS; stronger effect = lower value; inhibition of EC80 agonist-evoked calcium signal. activity change, negative = inhibition, % (no concentration beside the values). actives 0.02% (n = 390,000). AID 624415; in the data active means activity change below about -50%; inconclusive means about -30% to -50%; inactive means above about -30%;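 note: stimulus is agonist 54-4 at its EC80 concentration; % is set by controls: 0 for no effect and ±100 for the full control effect; compound concentration not given in the record; the text of the record puts the active cut at -80%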
#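 Tet-induced TRPML1-DL cells loaded with Ca8 no-wash calcium dye were read kinetically on FDSS. Compound addition was followed by EC80 agonist 54-4 (4 uM final); inhibition was read over 110 s.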
# CtBP-E1A inh: CtBP/E1A binding inhibition; activity change, % (concentration not given with the values); actives 0.49% (n = 340,000); AID 651724; AlphaScreen GST-E1A/His-CtBP binding, 1536-well; stronger effect = lower value; control for the full effect not named in the record; in the data active means activity change below about -65%; inconclusive means about -30% to -65%; inactive means above about -30%; note: % is set by controls: 0 for no effect and ±100 for the full control effect
#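 GST-E1A and His-tagged CtBP (125 nM each as 5X stock) were preincubated with pin-transferred compound for 2 h at 37 °C in the dark, then glutathione donor and nickel acceptor beads were added for 1 h before AlphaScreen reading.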
# TRPML1 agonist: agonists of human TRPML1 channel; Q9GZU1; activation, % (test concentration not listed); TRPML1-expressing cells, Ca2+ dye fluorescence, FDSS; host cell line not named in the record; reference of the full effect not given here; AID 624414; actives 0.12% (n = 410,000); in the data active = activation above about 50%; inconclusive = about 30% to 50%; inactive = below about 30%; note: 0% is about no effect; the text of the record puts the active cut at 80%
#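 Calcium fluorescence on an FDSS kinetic reader gave the read-out. Tet-induced TRPML1-DL cells were plated overnight, dye-loaded (Ca8 with quencher, 45-90 min, room temperature, dark), then read 110 s after compound addition, and again 110 s after 4uM final 54-4 (EC80).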
# PINK1 expr mod: PINK1 expression modulation. PINK1 immunofluorescence, high-content cytometry, 24 h. Potency, µM (titrated, usually from 76.6 µM), for the others: at the top dose activation (PINK1 increase), most hits filed as activators. actives 0.2% (n = 410,000); active = well fitted activation curve with a large enough effect; inconclusive = small, poorly fitted or top-dose-only effect; inactive = flat fitted curve, though single readings scatter; cell line not stated here;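 note: potency is the fitted concentration of half-maximal effect; % of control where 0% means no effect; nearly all actives have a fitted effect of over 65% in size; a mitochondrial uncoupler was the plate control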
#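 PINK1 protein, normally rapidly degraded, was detected by immunofluorescence after 24 hour compound treatment of a stable cell line. Titration data (5 concentrations) came from laser-scanning cytometry, with CCCP-treated wells as controls.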
# * marks the source's active call; other numbers are inactive results; ? = inconclusive; . = no result given; [ ] = remark or other dose. Outcome played no part in choosing rows, and some 1% of all compounds hit somewhere here.
SMILES,D2 ag,Six1-Eya2 inh,TRPML1 blocker,CtBP-E1A inh,TRPML1 agonist,PINK1 expr mod
Cn1c2c(c(=O)n(C)c1=O)C(NS(=O)(=O)c1ccccc1)(C(F)(F)F)C(=O)N2 (configuration not stated),-1.9,13,19,-1,1.2,0.2%
O=C(CN1c2ccccc2Sc2ccccc21)N/N=C/c1ccc(Cl)cc1,5.1,-14,-2,-5,-0.1,2.5%
O=C(NC(=S)Nc1ccccc1C(F)(F)F)c1ccccc1F,-2.8,-2,5,0,0.9,4.3%
Cc1ccc(S(=O)(=O)CC(=O)Nc2nc3ccccc3s2)cc1,0.5,-12,-2,0,1.7,-0.2%
Clc1ccccc1CN(Cc1ccccc1)c1ncnc2nc[nH]c12,-4.1,-3,29,-2,-0.4,1.8%
CCOC(=O)C1(Cc2ccc(OC)cc2)CCN(C(=O)CCc2cccnc2)CC1,0.6,2,-9,0,-0.7,0.0%
COc1ccc(S(=O)(=O)NC(CC(=O)NCc2ccc3c(c2)OCO3)c2ccco2)cc1 (configuration not stated),-1.8,-8,22,3,1.5,-1.6%
COc1ccccc1N1CCN(/N=C/c2ccc(C(=O)O)cc2)CC1,-3.8,0,6,.,4.0,1.4%
CC(=O)N1CCCc2cc(S(=O)(=O)N3CCCCC3)ccc21,.,.,26,.,0.1,-0.7%
Cc1cc(C)cc(Nc2ncnc3nc[nH]c23)c1,-2.8,3,-1,3,1.1,11%
O=C(NCCS(=O)(=O)NCc1ccccn1)c1ccccc1,-2.8,5,0,4,0.3,-0.2%
COc1cc(OC)c(OC)cc1CNC(=O)c1ccc(S(=O)(=O)N2CC(C)OC(C)C2)cc1 (configuration not stated),7.9,-11,40,-4,2.8,1.4%
CCOC(=O)C(CCCOc1cccc(CC)c1)C(=O)OCC,-0.8,677,-7,30,2.6,1.6%
Cc1ccc2nc(SCc3nnc(-c4ccccc4)o3)[nH]c2c1,-3.7,-1,-11,0,2.6,0.1%
CCNC(=O)C1(C)CCN(C(=O)c2ccc3snnc3c2)C1 (configuration not stated),-1.2,-2,.,8,-0.4,0.8%
COc1ccc(CNC(=O)CN2C(=O)c3ccccc3C2=O)cc1,-4.3,2,10,.,1.4,2.0%
O=C(N/N=C/c1c(O)n(-c2ccccc2Cl)c(=O)c2ccccc12)c1cccnc1,2.1,-17,8,-5,9.2,4.3%
Cc1ccc(C(O)c2ncc(-c3ccccc3C(F)(F)F)[nH]2)cc1F (configuration not stated),2.8,-10,.,-3,-0.3,3.0%
O=S(=O)(c1ccc(Br)cc1)N1CCN=C1SCc1cccc(F)c1,6.9,8,68,11,2.2,1.2%
O=C(NC(=S)Nc1cccc(NC(=S)NC(=O)c2ccccc2)c1)c1ccccc1,-4.5,-8,59,-4,0.6,6.8%
Cc1cccn2c(=O)c3cc(S(=O)(=O)c4ccccc4)c(=N)n(Cc4ccc(F)cc4)c3nc12,2.9,0,22,11,-0.6,?
O=C(NCC(c1ccco1)N1CCCC1)c1ccccc1Sc1ccc(C(F)(F)F)cc1[N+](=O)[O-] (configuration not stated),-1.8,-15,4,-11,0.0,-0.7%
C=CCN1CCN(c2ccncc2S(=O)(=O)N2CCCCC2)CC1,0.0,7,-4,-9,0.7,0.5%
O=C(O)CSCC(=O)N1CCN(S(=O)(=O)c2ccccc2)CC1,-1.0,5,3,22,0.2,1.0%

# Structural class: the compounds so far with four or more nitrogen atoms.
SMILES,D2 ag,Six1-Eya2 inh,TRPML1 blocker,CtBP-E1A inh,TRPML1 agonist,PINK1 expr mod
Cn1c2c(c(=O)n(C)c1=O)C(NS(=O)(=O)c1ccccc1)(C(F)(F)F)C(=O)N2 (configuration not stated),-1.9,13,19,-1,1.2,0.2%
Clc1ccccc1CN(Cc1ccccc1)c1ncnc2nc[nH]c12,-4.1,-3,29,-2,-0.4,1.8%
Cc1cc(C)cc(Nc2ncnc3nc[nH]c23)c1,-2.8,3,-1,3,1.1,11%
Cc1ccc2nc(SCc3nnc(-c4ccccc4)o3)[nH]c2c1,-3.7,-1,-11,0,2.6,0.1%
CCNC(=O)C1(C)CCN(C(=O)c2ccc3snnc3c2)C1 (configuration not stated),-1.2,-2,.,8,-0.4,0.8%
O=C(N/N=C/c1c(O)n(-c2ccccc2Cl)c(=O)c2ccccc12)c1cccnc1,2.1,-17,8,-5,9.2,4.3%
O=C(NC(=S)Nc1cccc(NC(=S)NC(=O)c2ccccc2)c1)c1ccccc1,-4.5,-8,59,-4,0.6,6.8%
Cc1cccn2c(=O)c3cc(S(=O)(=O)c4ccccc4)c(=N)n(Cc4ccc(F)cc4)c3nc12,2.9,0,22,11,-0.6,?
C=CCN1CCN(c2ccncc2S(=O)(=O)N2CCCCC2)CC1,0.0,7,-4,-9,0.7,0.5%

# Following part
SMILES,D2 ag,Six1-Eya2 inh,TRPML1 blocker,CtBP-E1A inh,TRPML1 agonist,PINK1 expr mod
Cc1cc(C(=O)CSc2nnnn2C)c(C)n1-c1ccc2c(c1)OCCO2,1.9,-13,-7,-16,0.3,4.0%
COc1ccc(CCNC(=O)CCC(=O)N2CCOc3ccccc32)cc1OC,3.1,0,1,3,0.0,0.9%
CC(C)n1cnc2c(NCc3ccc(S(N)(=O)=O)cc3)nc(NCc3ccc(S(N)(=O)=O)cc3)nc21,2.5,-1,24,0,0.3,17%
Cc1ccccc1C(=O)Nc1ccc(C(=O)N/N=C/c2ccc(F)cc2)cc1,-3.2,0,5,.,0.2,14%
Cc1c(C(=O)N2CCN(c3ccccn3)CC2)oc2c(F)cccc12,-3.9,-12,-6,-14,0.2,2.2%
CN(C)C(=O)c1cccc(-c2cnc3c(NC=O)cc(-c4ccccc4Cl)cn23)c1,12,-27,-8,?,2.1,6.7%
COCCN1C(=O)N[C@@H](c2ccccc2)[C@H](C(C)=O)[C@H]1C,-1.0,45,5,-5,0.1,3.7%
Cc1cc2ncc(-c3cccc(Cl)c3)cn2n1,-3.9,5,-10,7,-0.3,2.4%
C/C(=N\N1C(=O)c2ccccc2C1=O)c1cccc([N+](=O)[O-])c1,1.7,3,-5,1,-0.5,-0.9%
COc1ccc(Oc2ccccc2/C=C/C(=O)O)cc1,-2.2,3,-7,-11,-0.1,-0.7%
CSc1nc(O)c(C(c2cccc([N+](=O)[O-])c2)c2c(O)nc(SC)[nH]c2=O)c(=O)[nH]1,1.8,-5,5,2,0.4,0.6%
CCN1CCN(CCCN(Cc2ccco2)C(=S)Nc2ccc(Cl)cc2)CC1,-3.4,0,34,3,0.9,1.7%

# Part of the list above, with bars between the fields.
compound | D2 ag | Six1-Eya2 inh | TRPML1 blocker | CtBP-E1A inh | TRPML1 agonist | PINK1 expr mod
COCCN1C(=O)N[C@@H](c2ccccc2)[C@H](C(C)=O)[C@H]1C | -1.0 | 45 | 5 | -5 | 0.1 | 3.7%
Cc1ccccc1C(=O)Nc1ccc(C(=O)N/N=C/c2ccc(F)cc2)cc1 | -3.2 | 0 | 5 | . | 0.2 | 14%

# The list continues:
SMILES,D2 ag,Six1-Eya2 inh,TRPML1 blocker,CtBP-E1A inh,TRPML1 agonist,PINK1 expr mod
COc1ccc(CCNC(=O)Cn2nnc3ccccc3c2=O)cc1,-1.5,15,2,9,-0.5,1.4%
CCCCC(=O)NNC(=S)NCc1ccccc1,-0.6,-1,8,7,0.3,6.1%
CCNC(=O)C1(C)CCCN(C(=O)c2ccc3c(c2)C(C)(C)CCC3(C)C)C1 (configuration not stated),1.8,-1,14,0,-0.3,1.3%
O=C(CCNS(=O)(=O)c1ccc2c(c1)CCN2C(=O)C1CC1)N1CCN(c2ccc(F)cc2)CC1,.,.,-5,.,2.0,-3.8%
Cc1c(C(=O)N2CCCC2)sc(NC(=O)c2ccccc2)c1C#N,2.4,-2,25,10,1.2,-1.8%[38.3 µM]
Cc1cc(C)cc(-n2c(SCC(=O)N3CCCC3)nc3c([nH]c4ccccc43)c2=O)c1,.,.,-10,.,0.3,-3.9%
CCN(CC(=O)NC1CCS(=O)(=O)C1)S(=O)(=O)c1cc(C)ccc1C (configuration not stated),1.4,0,3,-1,-0.1,-0.5%
C[N+](C)(C)CCN(Cc1ccc(Cl)cc1)c1ccccn1,-1.0,2,-7,2,0.5,0.2%
CC(=O)c1c(C)[nH]c(C(=O)OCc2cc(=O)n3cc(Br)ccc3n2)c1C,-0.2,-3,-22,3,-0.3,?
CCOC(=O)c1[nH]c(C)c(/C(O)=C2\C(=O)C(=O)N(CCCN3CCOCC3)C2c2cccs2)c1C (configuration not stated),-1.4,14,29,-15,1.5,6.6%
COc1nnc(-c2ccc(N3CCCCC3)c(NC(=O)C3CCCCC3)c2)c2ccccc12,0.6,11,7,15,0.5,3.7%
COc1cc(OC)cc(C(=O)NCCCNC(=O)c2ccccn2)c1,-1.9,3,-5,4,-0.2,3.9%
O=C(O)C(NC(=O)C1CCCN1C(=O)OCc1ccccc1)c1ccccc1 (configuration not stated),1.0,5,-4,10,1.2,-1.4%
COc1ccc(CNC(=O)CN(Cc2ccc(F)cc2)C(=O)CCC(=O)Nc2nccs2)cc1,1.6,-10,3,8,1.9,-0.1%
CC(=O)c1ccc(N2CCN(CC(=O)N(CC(C)C)c3c(N)n(CC(C)C)c(=O)[nH]c3=O)CC2)cc1,-0.6,1,15,4,0.2,0.6%
CCCCn1cnc2c1c(=O)n(CC(=O)c1cc(C)n(C)c1C)c(=O)n2CC(C)C,-2.7,-8,-15,-15,0.2,5.3%
COc1ccc(C(=O)N=S2CCN(C(=O)c3ccc(Cl)cc3)CC2)cc1,-5.0,4,10,13,2.5,1.2%
C/C(N)=C(/C#N)C(=O)CSc1nc2ccccc2c(=O)n1Cc1ccc(F)cc1,-1.1,-14,-8,8,-0.8,1.1%
COc1ccc(C)cc1-n1nnnc1SCC(=O)c1ccc2c(c1)OCCO2,-4.7,-1,26,1,1.5,-5.3%
CC1(c2nnc(-c3ccncc3)o2)CC(c2c(Cl)cccc2Cl)=NO1 (configuration not stated),-1.7,1,-17,-26,0.6,0.7%

# 3 compounds from above, showing only CtBP-E1A inh and TRPML1 agonist:
SMILES | CtBP-E1A inh | TRPML1 agonist
O=C(NC(=S)Nc1ccccc1C(F)(F)F)c1ccccc1F | 0 | 0.9
COc1nnc(-c2ccc(N3CCCCC3)c(NC(=O)C3CCCCC3)c2)c2ccccc12 | 15 | 0.5
O=C(CCNS(=O)(=O)c1ccc2c(c1)CCN2C(=O)C1CC1)N1CCN(c2ccc(F)cc2)CC1 | . | 2.0
